Assay outcomes deposited in PubChem by several laboratories.
Sa ugtP lethal – compounds lethal to S. aureus RN4220 ugtP deletion mutant; OD600 growth, 16 h; some inactives read as strong as hits; growth inhibition, % (no concentration beside the values); 330,000 tested, 0.54% active; AID 1259309;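 active = z-score under -3 and OD600 up to 0.15 on both plates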;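 also: plate controls were untreated wells for no effect and antibiotic for full effect; wells of about 80 µL received 100 nL stock; the first replicate is given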
BJeLR lethal – kills HRASV12-expressing BJeLR cells | BJeLR (HRASV12) viability, CellTiter-Glo ATP luminescence, 48 h; reference of the scale not given here | inhibition, % (no concentration beside the values) | 300,000 tested, 0.17% active | AID 1554;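 active = replicate mean above 50%; inconclusive = above 50% but judged a plate artefact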;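 also: 50 nL library stock added to about 25 µL; numbers are from one replicate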
PrP UTR inh – inhibition of PrP 5' UTR reporter expression; cell-based PrP 5' UTR mRNA reporter, plate reader; inhibition, % (no concentration beside the values); 340,000 tested, 0.35% active; AID 488862;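 active = every replicate at 50% or more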;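 also: 0 = median of the neutral control wells; tested in H4 reporter cells; numbers are from one replicate; inactives centre near -14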
Mtb hypoxia rep – reduces hypoxia-regulated biosensor signal in M. tuberculosis | AID 1159583 | M. tuberculosis hypoxia-regulated fluorescent reporter, fluorescence | fluorescence inhibition, % (concentration not given with the values) | 300,000 tested, 0.1% active;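 active = 35 to 45% if threefold the growth effect, above 45% if 1.5-fold the growth effect; inactive = the rest, general growth blockers included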;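 also: wells of about 50 µL received 100 nL stock; 0% = vehicle wells and 100% = reference inhibitor wells; whole bacteria with a GFP reporter of the hypoxia response; strong numbers were not always called active; many hits fall short of the cut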
RN4220 kill – kills Staphylococcus aureus RN4220; S. aureus RN4220 growth, OD600, 16 h; AID 1259311; inhibition, % (test concentration not listed); 330,000 tested, 0.33% active;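 active = z-score of -3 or lower and OD600 up to 0.18 on both plates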;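 also: plate controls were untreated cells for no effect and reference antibiotic for full effect; stock transfer was 100 nL into about 80 µL; one replicate is shown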
Bead autofluor – counter-screen for toxin protease inhibitors: compound fluorescence | 360,000 tested, 3.1% active | AID 624483 | compound autofluorescence counterscreen, microsphere flow cytometry; active compounds read high | fluorescence intensity (concentration not given with the values);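 active = at least 3 SD above the mean of all compounds, about 16000 in these data; inconclusive = too few beads counted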;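 also: 100 nL of 1 mM stock went into each well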
Mtb hypoxia rep growth – further read-out of Mtb hypoxia rep, marked with its call; growth inhibition, %; measured here: M. tuberculosis growth (absorbance);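 0% = vehicle and 100% = reference antibiotic; read after six days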
The depositor's hits bear a star; ? = inconclusive; . = not tested or not shown.

Compound	Sa ugtP lethal	BJeLR lethal	PrP UTR inh	Mtb hypoxia rep	Mtb hypoxia rep growth	RN4220 kill	Bead autofluor
Cc1nc(SCC(=O)NCC2COc3ccccc3O2)c2c(C)c(C)sc2n1 (stereo not given)	6.6	.	-25.6	9.7	-6.4	19.7	5019
COC(=O)[C@@]1(Cc2ccccc2)[C@H]2C(=O)N(C)C(=O)[C@H]2[C@H]2CN=C(SCc3ccc(C#N)cc3)N21	-4.2	.	-8.7	-3.8	3.4	1.9	3667
COC(=O)CSC1=C(C#N)C(c2ccccc2)CC(=O)N1 (stereo not given)	7.0	0.2	-14.6	9.0	-3.4	3.2	10031
Cn1nnnc1SCC(=O)Nc1ccc(Cl)cn1	1.7	6.5	-8.8	0.8	-2.9	5.6	5872
Cc1cc2oc(=O)cc(CN3CCCCC3C)c2cc1C (stereo not given)	2.0	1.2	-12.6	4.8	-2.5	1.6	6259
Cc1noc(C)c1C(=O)Nc1nc(C23CC4CC(CC(C4)C2)C3)cs1	-0.5	9.3	-0.8	6.1	5.0	5.1	23212*
NC(=O)CC(NC(=O)c1cccc(Br)c1)c1ccc(NC2CCC2)c([N+](=O)[O-])c1 (stereo not given)	-20.5	5.2	-12.5	12.5	12.1	-2.0	3511
CC[n+]1c(C)sc2c(C)cc(C)cc21	7.8	4.4	-6.1	.	.	2.1	3959
O=C(CCC1N=C2c3ccccc3N=C(SCC(=O)NCC3CCCO3)N2C1=O)NCc1ccc(F)cc1 (stereo not given)	-6.5	-3.6	-15.0	-4.6	-1.1	-3.5	5699
Cc1ccc(O)c(C=NNC(=O)c2[nH]ncc2Br)c1	6.3	.	.	7.4	1.5	4.4	.
S=C1c2ccccc2CN1c1ccccc1	1.3	8.8	-46.3	6.9	10.0	5.4	2936
COc1ccc(S(=O)(=O)N2CCCCCC2)cc1NC(=O)CCCOc1ccccc1	4.6	.	-28.7	6.3	0.7	3.1	8878
O=C(Nc1ccc([N+](=O)[O-])cc1)c1cccc(S(=O)(=O)Nc2ccccn2)c1	0.9	4.5	12.8	0.0	-0.8	3.4	5421
COCC(C)N1CCC(n2nccc2NC(=O)CCCc2ccccc2)CC1 (stereo not given)	5.4	-0.3	-6.1	3.4	-0.4	0.2	5823
C/C(=N\NC(=O)C1CC1)c1cccnc1	.	5.7	-11.3	.	.	.	2108

Next records follow:
Compound	Sa ugtP lethal	BJeLR lethal	PrP UTR inh	Mtb hypoxia rep	Mtb hypoxia rep growth	RN4220 kill	Bead autofluor
COc1ccc(CCc2nc(-c3cccs3)no2)cc1	7.5	0.6	-31.8	-2.1	4.5	11.0	3331
CC(=O)Nc1cccc2c1C(=O)N(c1ccccc1C)C2=O	-5.5	-2.5	-30.4	-3.3	12.9	-2.6	4173
Cc1ccc(-n2nnnc2SCC(=O)c2c(N)n(CC(C)C)c(=O)n(C)c2=O)cc1	-6.5	-7.5	-20.9	8.6	3.1	3.1	11629
CC(C(=O)c1ccc(-c2ccccc2)cc1)[n+]1cccc(Br)c1 (stereo not given)	13.4	2.0	-34.4	3.3	9.4	2.4	3750
C=CCc1ccc(OCCOc2cccc(/C=N/n3cnnc3)c2)c(OC)c1	.	1.1	-22.7	.	.	.	2599
CSc1nc2c(c(=O)[nH]c(=O)n2C)n1Cc1ccccc1	6.2	-4.8	-18.8	19.2	9.4	3.2	3230
O=C(COc1cccc2ccccc12)NNC(=O)c1cnccn1	-0.6	-15.2	-21.6	-11.3	2.4	0.4	8659
O=C1C(=O)N(CNc2ccccn2)c2ccccc21	1.0	6.4	-23.8	14.5	9.2	1.7	3364
NS(=O)(=O)c1ccc(CNC(=O)/C=C/c2ccccc2[N+](=O)[O-])cc1	2.6	-0.6	-18.6	2.1	11.2	3.1	4185
Cc1cccc(N2C(=O)CN=C2Nc2nc(C)cc(C)n2)c1	10.4	-3.9	-1.3	.	.	4.2	4780
O=C(NCc1ccncc1)c1ccc(S(=O)(=O)Nc2ccccc2)cc1	-0.1	-5.0	-11.2	13.2	6.5	0.9	?
Cc1c(C)c2c(OCC(=O)N3CCC(C(=O)O)CC3)cc3c(c2oc1=O)CCC(C)(C)O3	9.6	-2.4	-25.5	.	.	2.9	5536
CCOC(=O)c1c(C)n(CCO)c2ccc(O)cc12	1.0	9.0	-20.3	2.5	13.5	-0.6	10935
Cc1ccc2[nH]cc(CCNC(=O)c3cccnc3)c2c1	-1.8	-1.6	-42.5	9.2	5.3	0.2	8172
CC1(C(=O)NC2CCCCCC2)CCC(=O)N1Cc1ccc2c(c1)OCO2 (stereo not given)	0.8	0.6	-0.7	0.7	-5.9	-0.4	16292*

(list continues)
Compound	Sa ugtP lethal	BJeLR lethal	PrP UTR inh	Mtb hypoxia rep	Mtb hypoxia rep growth	RN4220 kill	Bead autofluor
CCn1c(SCC(=O)NCC2CCCO2)nc2c(c1=O)SC(C)C2 (stereo not given)	10.5	1.3	5.8	10.0	8.5	1.5	4126
Cc1ccc(NC(=O)c2sc3nc(N)c(C#N)cc3c2N)cc1	4.6	5.9	-67.5	17.4	5.5	10.2	2642
O=C(CCCN1C(=O)CCC1=O)Nc1ccc2c(c1)OCO2	-0.2	2.5	-23.5	.	.	1.3	4771
COc1cccc(CC2(CO)CCN(Cc3cccn3-c3cccnc3)CC2)c1	13.3	4.2	-15.7	2.4	2.5	4.1	3947
CCc1cccc(C)c1NC(=O)CN(C)C1=NS(=O)(=O)c2ccccc21	10.1	.	-39.0	1.9	1.4	5.6	?
Cn1nc(C(F)(F)F)c2cc(C(=O)NC3CC3)sc21	-3.3	-6.9	-2.3	15.1	19.7	-6.8	3434
CN(C)CCN1C(=O)CCC2(C)C1=CCC1C2CCC2(C)C1CCC2(C)O (stereo not given)	2.1	.	-8.7	13.1	4.3	4.2	3453
CN(CC(=O)Nc1ccc(F)cc1)C(=O)c1cc(-c2ccco2)nc2ccccc12	-5.7	5.3	-29.3	0.4	6.9	0.5	5410
CN(Cc1cccnc1)Cc1cn(C)nc1-c1ccc(Oc2ccccc2)cc1	8.4	1.5	-39.0	7.1	17.3	7.1	4255
CCC(C(=O)OCC(=O)N(CCOC)c1c(N)n(Cc2ccccc2)c(=O)[nH]c1=O)c1ccccc1 (stereo not given)	13.1	-1.0	4.6	8.0	-0.5	2.1	5811
COc1c(C)cccc1C(=O)Nc1ccc(N2CCOCC2)c(Cl)c1	8.8	9.6	-120.1	0.3	8.5	18.3	2371
Cc1cccc(C(C#N)c2nc3ccccc3nc2C(F)(F)F)c1 (stereo not given)	-9.0	-0.2	-16.7	.	.	-1.7	2625
CC(=NNC(=O)CNc1cccc2ccccc12)c1ccccc1	-0.7	.	.	4.9	7.2	0.7	.
COCCN1C(=O)C(=O)C(=C(O)c2ccc3c(c2)OCCO3)C1c1ccc(C(=O)OC)cc1 (stereo not given)	1.1	.	.	0.2	2.2	4.7	.
CCc1nc(C)cn1S(=O)(=O)c1cc([N+](=O)[O-])ccc1Cl	2.6	36.8	-16.7	1.9	5.9	14.5	4438

The listing continues:
Compound	Sa ugtP lethal	BJeLR lethal	PrP UTR inh	Mtb hypoxia rep	Mtb hypoxia rep growth	RN4220 kill	Bead autofluor
COc1ccc2c(C)cc(=O)[nH]c2c1	-4.6	7.9	0.5	-4.7	6.0	1.3	4613
C/C(=N\OC(=O)c1ccc(Cl)c(Cl)c1)c1sc(C)nc1C	.	6.7	-6.5	.	.	.	2717
CC(Oc1cccc(F)c1)C(=O)/C=C\N(C)C (stereo not given)	5.6	1.0	-37.8	6.7	16.2	4.0	11296
Cc1[nH]c2ccccc2c1C(=O)C(=O)N1CCN(c2ccccc2F)CC1	18.4	0.8	-27.1	-5.9	-9.7	51.0	.
COc1cc(/C=N/n2nnnc2N)cc(Cl)c1OC	.	-8.9	-21.2	.	.	.	4159
C=CCSc1nc(C)c(Cc2cccc3ccccc23)c(=O)[nH]1	-14.7	3.0	-26.0	-0.2	3.0	2.8	4002
N#Cc1cnc(NCc2ccc(Cl)cc2Cl)nc1	4.5	7.7	-15.3	10.9	6.6	-0.2	3900
CCOC(=O)c1nn(-c2ccc(OCC)cc2)c2nc(-c3cccc(OC)c3)c(C#N)c(=O)n12	2.8	0.6	-25.1	-5.1	-4.4	-1.1	10766
Cc1ccccc1NC(=S)N(CCCN1CCCCC1)Cc1ccco1	2.9	-1.8	-14.0	0.0	2.9	5.1	8033
COC(=O)c1nn(-c2ccccc2)c(Sc2ccc(Cl)cc2)c1/C=N/O	.	2.6	-70.5	.	.	.	3371
Cc1onc(-c2ccccc2)c1C(=O)Nc1cccc2nsnc12	-11.6	6.4	-9.8	3.9	10.8	-1.2	2791
O=C(CNC(=O)Cc1ccccc1)N=Nc1c(O)[nH]c2ccccc12	2.9	2.4	-19.5	14.6	9.1	-0.4	5524
NS(=O)(=O)c1ccc(CNC(=O)/C=C/c2c(Cl)cccc2Cl)cc1	7.5	-1.4	.	.	.	0.0	.
CC(=O)c1ccc(OCC(=O)OCC(=O)N(CC(C)C)c2c(N)n(Cc3ccccc3)c(=O)[nH]c2=O)cc1	3.7	.	-9.7	-1.5	-1.5	2.2	?
O=C(CC1CCCCC1)NCc1nc(-c2ccccc2)no1	11.4	3.1	-4.6	2.7	5.0	-5.7	6878

3 compounds picked at random from the list so far, as already listed:
Compound	Sa ugtP lethal	BJeLR lethal	PrP UTR inh	Mtb hypoxia rep	Mtb hypoxia rep growth	RN4220 kill	Bead autofluor
CCOC(=O)c1nn(-c2ccc(OCC)cc2)c2nc(-c3cccc(OC)c3)c(C#N)c(=O)n12	2.8	0.6	-25.1	-5.1	-4.4	-1.1	10766
Cc1onc(-c2ccccc2)c1C(=O)Nc1cccc2nsnc12	-11.6	6.4	-9.8	3.9	10.8	-1.2	2791
O=C(CC1CCCCC1)NCc1nc(-c2ccccc2)no1	11.4	3.1	-4.6	2.7	5.0	-5.7	6878

Following part
Compound	Sa ugtP lethal	BJeLR lethal	PrP UTR inh	Mtb hypoxia rep	Mtb hypoxia rep growth	RN4220 kill	Bead autofluor
CCCCn1c(N)c(N(CC(C)C)C(=O)c2ccc(COc3ccccc3)o2)c(=O)[nH]c1=O	5.2	3.1	-16.7	-2.2	-5.3	-3.2	5435
Cc1cccc(NC(=O)C(=O)NNC(=O)c2ccc(C(C)(C)C)cc2)c1	.	-2.2	-20.9	.	.	.	5761
Nc1ccccc1C=C1Cc2ccccc2C1=O	5.2	.	-65.4	20.7	16.7	7.0	3609
Brc1ccc2cccnc2c1	8.5	2.8	-8.8	.	.	1.6	4663
CN1CCN(CCC(C#N)(c2ccccc2)c2ccccc2)CC1	16.7	-11.0	-24.9	.	.	0.7	3941
Cc1cc(C)cc(C(=O)NN=Cc2ccoc2)c1	-5.3	.	.	-1.9	3.4	3.5	.
CCCCC(=O)Nc1cccc(-c2cn3ccccc3n2)c1	-0.9	-5.0	-28.6	2.9	-0.1	2.7	10011
CC(C)CC(=O)NC(=S)Nc1nc(-c2ccc(Cl)cc2)cs1	3.7	.	0.3	-5.7	-5.5	-5.8	2429
CCC(=O)c1cccc(-c2ccccc2)c1CC	12.5	.	19.5	3.7	4.3	6.0	3124
O=C(CSCCc1ccccn1)Nc1cccnc1Cl	3.3	8.0	-11.8	-0.5	9.7	1.5	10842
